Ba CapD inh = CapD enzyme inhibition | z-score (test concentration not listed) | hit rate 0.23% among 140,000 | purified CapD enzyme, fluorescence intensity read-out; active compounds read low; some hits fall short of the stated cut | AID 492967;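 active = z-score under -4 in either of two replicates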;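 also: stock transfer was 100 nL into about 40 µL; score is relative to mean and spread of the plate; one replicate is shown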
AID504770 = growth inhibitors of E. coli YBA685 in a screen for V. cholerae RctB (chromosome II replication) inhibitors. E. coli YBA685 rctB-dependent plasmid, OD600 growth, 3 h; active compounds read low. z-score (no concentration beside the values). hit rate 0.27% among 130,000. AID 504770;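 active = z-score under -2 on both plates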;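 also: wells of about 30 µL received 100 nL stock; score is relative to mean and SD of the test wells; the first replicate is given; strong numbers were not always called active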
* = called active by the depositor; · = not tested or not shown.

Results follow in this order: Ba CapD inh	AID504770
- CCOC(=O)c1c(NC(=O)Cn2cnc([N+](=O)[O-])n2)sc2c1CCCC2
  -0.26	·
- CCc1ccc(NC(=O)CSC2=C(C#N)C(c3ccc(C(C)C)cc3)CC(=O)N2)cc1 (stereo not drawn)
  -0.53	·
- CC(C)CCOc1ccc(/C=N/n2cnnc2)cc1
  -0.5	0.5
- O=c1c([N+](=O)[O-])c(N2CCOCC2)c2ccccc2n1-c1ccccc1
  0.37	·
- CC(C)C(C)NC(=O)COc1ccccc1C(N)=O (stereo not drawn)
  ·	-0.4
- Cc1ccc(-c2ccc(CCC(=O)O)n2-c2ccccc2C(F)(F)F)cc1
  0.88	-0.05
- CCOc1ccc(-c2nn(-c3ccccc3)cc2C2C(C(=O)OC)=C(C)NC(C)=C2C(=O)OC)cc1
  8.3	·
- O=C(Nc1c2c(nn1-c1cccc(Cl)c1)CS(=O)C2)c1cccc(C(F)(F)F)c1 (stereo not drawn)
  -0.52	1.5
- O=C(CCSc1cccs1)Nc1ccc(Cl)cc1
  -0.66	1.4
- CC(C)Oc1ccc(CNC2CCOC(C)(C)C2)cc1 (stereo not drawn)
  0.28	-0.85
- CSc1nnc(NC(=O)C(C)C)s1
  -0.3	-0.5
- CCCC(=O)N(c1ccc(C)c(Cl)c1)C1C=CS(=O)(=O)C1 (stereo not drawn)
  ·	0.3
- O=C(NCCCN1CCCC1=O)C1CCCN(C(=O)N2CCOc3ccccc32)C1 (stereo not drawn)
  -0.025	0.65
- COc1cccc2cc(-c3csc(Nc4cc(C(F)(F)F)ccc4Cl)n3)c(=O)oc12
  0.45	·
- COc1ccc(NC(=O)NC2c3ccccc3Oc3ccccc32)cc1OC
  0.85	0.25

The last 5 compounds of the section before are carried over, then new ones follow.
Results follow in this order: Ba CapD inh	AID504770
- CSc1nnc(NC(=O)C(C)C)s1
  -0.3	-0.5
- CCCC(=O)N(c1ccc(C)c(Cl)c1)C1C=CS(=O)(=O)C1 (stereo not drawn)
  ·	0.3
- O=C(NCCCN1CCCC1=O)C1CCCN(C(=O)N2CCOc3ccccc32)C1 (stereo not drawn)
  -0.025	0.65
- COc1cccc2cc(-c3csc(Nc4cc(C(F)(F)F)ccc4Cl)n3)c(=O)oc12
  0.45	·
- COc1ccc(NC(=O)NC2c3ccccc3Oc3ccccc32)cc1OC
  0.85	0.25
- COc1ccc(CC2CC(=O)N(c3ccc(C)cc3)C2=O)cc1 (stereo not drawn)
  0.085	0.85
- COC(=O)c1[nH]c2ccccc2c1S(=O)c1ccccc1 (stereo not drawn)
  1.8	-0.45
- CC(C)(C)C(=O)C(Cc1ccc(C#N)cc1)C(=O)C(C)(C)C
  ·	0.1
- CCOC(=O)c1c(NC(=O)CSc2nnc3cc(C)c4ccccc4n23)sc(C)c1C
  -0.04	·
- C#CC(O)(c1ccccc1)c1ccccc1
  -0.08	0.3
- COc1nc(-c2cccs2)cc(-c2ccc(C)cc2)c1C#N
  20	·
- O=C(CSc1nc2c(c(C(F)(F)F)n1)CCc1ccccc1-2)NCc1ccco1
  0.41	2.6
- N=C1c2ccccc2CN1NC(=O)CSc1nc2ccccc2[nH]1
  ·	0.05
- CCOC(=O)c1ccc(NC(=O)CSc2nc3ccccc3c(=O)n2CCC(=O)N2CCN(c3ccccc3)CC2)cc1
  -0.065	·
- Cc1ccc(-c2nc3ccccc3n2OCc2cccc(C(F)(F)F)c2)cc1
  0.53	·
- CSc1ccccc1NC(=O)C(C)OC(=O)c1nn(-c2ccccc2)nc1C (stereo not drawn)
  ·	0.1
- CCc1ccc(NC(=O)CN2C=NS(=O)(=O)c3ccccc32)cc1
  1.3	0.4
- COc1ccc(N2CCN(S(=O)(=O)c3ccc(F)c(C(=O)Nc4ccc(Cl)cc4Cl)c3)CC2)cc1
  -0.15	·
- CCN(Cc1ccccc1)S(=O)(=O)c1ccc2[nH]c(=O)ccc2c1
  1.9	0.65
- CCC(C)Nc1nc(-c2cc(OC)c(OC)c(OC)c2)nc2ccccc12 (stereo not drawn)
  0.4	·

Looked up one by one from the list above:
Results follow in this order: Ba CapD inh	AID504770
- Cc1ccc(-c2nc3ccccc3n2OCc2cccc(C(F)(F)F)c2)cc1
  0.53	·
- COc1ccc(N2CCN(S(=O)(=O)c3ccc(F)c(C(=O)Nc4ccc(Cl)cc4Cl)c3)CC2)cc1
  -0.15	·

Other results follow.
Results follow in this order: Ba CapD inh	AID504770
- N#Cc1c2n(c3c(=O)n(Cc4ccccc4)cnc13)CCCC2
  0.3	·
- N=C1c2ccccc2CN1CCN1C(=O)S/C(=C\c2ccc(F)cc2)C1=O
  ·	-0.9
- CNc1c(NC(=O)C2CC(=O)N(c3ccccc3)C2)c(=O)oc2ccccc12 (stereo not drawn)
  0.92	-0.85
- Cc1cccc(NC2=NC(=S)N(c3ccc(C)cc3Br)C23CCCCC3)c1
  -0.29	·
- COC(=O)CN(Cc1ccccc1)S(=O)(=O)c1ccc(C)cc1
  -0.09	-0.1
- COC(=O)/C=C1\SCC(=O)N1CC(=O)c1ccccc1
  ·	1.6
- c1ccc(Cn2c(C3CCCO3)nc3ccccc32)cc1 (stereo not drawn)
  0.43	0.45
- CC1CC(C)CN(C(=O)Cn2c(=O)cnc3ccccc32)C1 (stereo not drawn)
  ·	0.4
- O=C(O)COc1ccc(/C=C2\C(=O)NC(=O)N(c3ccc(F)cc3)C2=O)cc1Br
  -0.19	·
- O=C(CSc1nnc(Cc2ccccc2)o1)N1CCN(c2ccccc2)CC1
  -0.21	0
- O=C(NN1S(=O)(=O)c2ccccc2S1(=O)=O)c1cscn1
  -6*	·
- O=C1C2C(c3ccc(F)cc3)OC3(C(=O)c4ccccc4C3=O)C2C(=O)N1c1ccc(Cl)c(Cl)c1 (stereo not drawn)
  -0.46	·
- O=C1C(O)C(O)C(=O)N1Cc1ccccc1 (stereo not drawn)
  ·	-1
- COc1cc(/C=[N+](/C)[O-])ccc1OCc1ccc(F)cc1
  -1.2	-0.95
- CC1=C(C)CC(C(=O)Nc2ccc(NC(=O)NC3CCCCC3)cc2)C(C(=O)O)C1 (stereo not drawn)
  ·	-0.55

As a short view, some entries already given.
Results follow in this order: Ba CapD inh	AID504770
- N#Cc1c2n(c3c(=O)n(Cc4ccccc4)cnc13)CCCC2
  0.3	·
- N=C1c2ccccc2CN1CCN1C(=O)S/C(=C\c2ccc(F)cc2)C1=O
  ·	-0.9
- CNc1c(NC(=O)C2CC(=O)N(c3ccccc3)C2)c(=O)oc2ccccc12 (stereo not drawn)
  0.92	-0.85

More results follow:
Results follow in this order: Ba CapD inh	AID504770
- CN(NC(=O)c1ccccc1Cl)c1ncc(Cl)cc1C(F)(F)F
  0.45	·
- CC1=NN(c2ccc(C(=O)NC(Cc3ccc(OC(C)(C)C)cc3)C(=O)OC(C)(C)C)cc2)C(=O)C1 (stereo not drawn)
  -0.71	·
- COc1ccccc1/C=C1\SC(=S)N(CCC(=O)Nc2nccs2)C1=O
  -1.1	1.4
- CC1(C)CC(=O)C2=C(C1)NC1=C(C(=O)c3ccccc31)C2c1ccc(F)cc1 (stereo not drawn)
  1.1	·
- O=Nc1c(O)n(Cc2ccc(Cl)cc2Cl)c2ccc([N+](=O)[O-])cc12
  -1.2	·
- CC(OC(=O)c1ccccn1)C(=O)Nc1ccc(C(F)(F)F)cc1 (stereo not drawn)
  ·	0.3
- Clc1ccccc1C1Nc2ccccc2O1 (stereo not drawn)
  -0.25	·
- N#CC1=C(N)Oc2n[nH]c(-c3ccccc3)c2C1C1CC=CCC1 (stereo not drawn)
  ·	0.5
- CCN(C(=O)c1cnc(OC)cc1C(F)(F)F)c1ccc(Cl)cc1
  0.03	0.65
- CC(=O)Nc1ccc(NC(=O)CSc2ncccc2C(=O)O)cc1
  -0.53	·
- O=C(c1cc(C(F)(F)F)cc(C(F)(F)F)c1)c1ccccc1C(=O)N1CCOCC1
  0.63	·
- CN(C)C(=O)c1cn(-c2ccccc2)c(=O)c2ccccc12
  4.7	-0.1
- CC(=O)c1ccc(N2CCN(C(=O)c3nccc4ccccc34)CC2)cc1
  3.7	·
- COc1ccc2c(c1)OC(c1ccccc1)(C(F)(F)F)NC2=O (stereo not drawn)
  0.49	-0.45
- O=C(CN1CCOCC1)n1c2ccccc2c2ccccc21
  ·	-1.1
- CCc1ccc(NCN2C(=O)C3=C(CCCC3)C2=O)cc1
  -0.61	2.7
- CCOC(=O)c1cc(-c2csc(-c3ccc(C(F)(F)F)cc3)n2)on1
  -0.21	-1
- O=C(O)CCn1cnc2ccccc21
  0.49	-1.1
- Cc1cccc(C(=O)Nc2nc3c(s2)C(=O)CC(C)(C)C3)c1
  0.16	-0.1
- CC(C)c1cc(NC(=O)COC(=O)c2ccccc2SCC(=O)N2CCCC2)on1
  ·	-0.2
- CCN(CC)C(=O)c1sc(NC(=O)c2cc(-c3cccc(OC)c3)nc3ccccc23)c(C(=O)OC(C)C)c1C
  -0.07	·
- COc1ccc(C)cc1NC(=O)c1cc2ccccc2o1
  -0.15	2.5
- Cc1ccc(N2Cc3ccccc3C2=N)cc1Cl
  -0.02	-0.45
- CCC(Sc1nc2ccccc2o1)C(=O)Nc1ccccc1C#N (stereo not drawn)
  0.03	-0.4
- Cc1ccc2occ(CN3CC=C(c4ccc(F)cc4)CC3)c(=O)c2c1
  0.21	0.1
- COc1ccc(N2CCN(S(=O)(=O)c3ccccc3-c3nn[nH]n3)CC2)cc1
  -0.46	-0.5
- CN(Cc1ccccc1)C(=O)c1cc(S(=O)(=O)N2CCCCC2)c[nH]1
  -0.24	-0.45
- O=C(Nc1ccc2oc(=O)ccc2c1)c1cccc(F)c1
  ·	1.1
- CCOC(=O)c1c(CBr)n(C)c2ccc(OS(=O)(=O)c3ccc(C)cc3)cc12
  0.04	·
- N#CCC(=O)NN=C1CSc2sc(=S)sc2SC1
  1.2	·
- CC(C)CCNC(=O)c1cc(-c2ccccc2)n[nH]1
  -1.3	0.6
- COc1ccc(C(NC(=O)CCCN2C(=O)c3ccccc3C2=O)c2ccccc2)cc1 (stereo not drawn)
  -0.31	-0.35
- Cc1ccc(C)c(Cn2nc3nc(C)nc(N4CCC(CNC(=O)OC(C)(C)C)CC4)c3n2)c1
  0.58	-0.3
- Cc1cc(C)n2cc(CSc3ccccn3)nc2n1
  ·	0.1
- COc1ccc(C2=NN(C(=O)CCC(=O)O)C(c3cc4ccc(C)cc4nc3Cl)C2)cc1 (stereo not drawn)
  -0.38	·
- CC(C)n1cc(-c2ccccc2NC(=O)Nc2cccc(C(F)(F)F)c2)cn1
  -0.82	·
- CCc1ccc(NC(=O)Cn2ncc3c2-c2ccccc2OC3)cc1
  0.07	-0.2
- COc1ccc(CNCC2COc3ccccc3O2)cc1OC (stereo not drawn)
  -0.17	-0.25
- Fc1ccc(NC(=S)NCCCn2ccnc2)c(F)c1
  -0.015	·
- CSc1cccc(-n2cc3ccsc3c2)c1
  0.07	-0.35
- O=c1nc2c(-c3ccc(Cl)cc3)n[nH]n2c2ccccc12
  -0.015	-0.25
- Cn1c(=O)oc2cc(S(=O)(=O)N3CCCC(C(=O)NN4CCOCC4)C3)ccc21 (stereo not drawn)
  0.23	-2
- CC1CCCCC1NC(=O)Cn1ncc2c(=O)oc3ccccc3c21 (stereo not drawn)
  0.14	-0.45
- OC12CC3CC(C1)C1(NCCS1)C(C3)C2 (stereo not drawn)
  0.56	-0.25
- Cc1ccc(N2CC(NC(=O)Nc3ccc(C(N)=O)cc3)CC2=O)cc1C (stereo not drawn)
  ·	-0.1
- Cn1ccnc1Sc1cnc(SCc2ccc(Cl)cc2)nc1-c1ccccc1
  9.4	0.35
- O=C(CC1CCCCC1)c1c(O)c2ccccc2oc1=O
  -0.1	-1.8
- Nc1cccc2c1NC(c1ccc(Cl)cc1)C1CCCC21 (stereo not drawn)
  -0.51	·
- CC(C)(C)c1ccc(OS(=O)(=O)c2ccc(Oc3c(Cl)cccc3[N+](=O)[O-])cc2)cc1
  -0.26	·
- COC(=O)c1ccc(COc2ccccc2OC)o1
  -0.46	1.4
- CC1(C)C=Cc2c(ccc3ccc(=O)oc23)O1
  23	0.4
- CCc1cccc2c(C(=O)C(Sc3nnc(CN4CCCC4=O)o3)c3ccccc3)c[nH]c12 (stereo not drawn)
  ·	-0.9
- Cc1c(C(=O)Nc2ccccc2C(F)(F)F)sc2nc(SCC(=O)C(C)(C)C)n(CCc3ccccc3)c(=O)c12
  18	·
- CC(=O)N1CCc2cc(NC(=S)NC3CCCCCC3)ccc21
  -0.84	-0.95
- CCOC(=O)c1nc(Nc2cc(OC)cc(OC)c2)c2ccccc2n1
  -0.36	·
- CCC(=O)Oc1cccc(N2C(=O)C3C4C=CC(C3C2=O)C2C(=O)N(c3cccc(OC(=O)CC)c3)C(=O)C42)c1 (stereo not drawn)
  0.15	·
- COc1ccccc1OCc1nc(=S)[nH][nH]1
  ·	0
- CCN(CC)S(=O)(=O)c1ccc(NC(=O)CCn2c(=O)oc3ccccc32)cc1
  -0.88	0.65
- Nc1c(-c2ccccc2)cnn1-c1ccc(C(=O)O)cc1
  -0.01	0.15
- CC(C(=O)Nc1ccc2c(c1)OCCO2)n1sc2ccccc2c1=O (stereo not drawn)
  -0.68	-0.65

Next section:
Results follow in this order: Ba CapD inh	AID504770
- O=[N+]([O-])c1cc2c(cc1Br)-c1cc(Br)c([N+](=O)[O-])cc1S2(=O)=O
  -0.045	·
- COc1ccc(-c2ccnc(SCC(=O)Nc3ccc(C(C)C)cc3)n2)cc1
  -0.43	·
- O=C(Cc1c(O)c2ccccc2[nH]c1=O)NCc1ccccc1Cl
  -0.1	-0.85
- COCC(C)n1c(=O)c2ccccc2c2ccccc2c1=O (stereo not drawn)
  0.41	-0.95
- CCN(CC)C(=O)c1ccc(NC(=S)NC2CC2)cc1
  ·	-0.4
- CN(C)c1ccc(C(=O)N2CCN(c3ccnc4cc(Cl)ccc34)CC2)cc1
  0.36	1
- CCOC(=O)C1CCCCN1Cc1ccc(Br)cc1 (stereo not drawn)
  0.005	-0.5
- COc1ccc(C(=O)Cn2nnc(-c3ccccc3)n2)cc1
  ·	-0.3
